KCNQ2 pot: potentiators of rat KCNQ2 potassium channel; Potassium voltage-gated channel subfamily KQT member 2 (Rattus norvegicus), O88943; CHO-K1 KCNQ2, FluxOR thallium flux fluorescence; stronger effect = higher value; B-score at 10 µM; hit rate 0.54% among 310,000;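 active = fluorescence ratio B-score at least 3 SD of library B-scores, with initial fluorescence B-score within 3 SD, cut at about 5.3 in these data; same plate scores as AID 2156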;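 also: B-score of peak minus minimum over baseline fluorescence ratio after K+ and Tl+ stimulus; positive B-score means potentiation of KCNQ2 with more thallium influx and brighter signal; only the inactives scoring about 0 or higher are listed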
Target sequence (O88943 whole entry, looked up): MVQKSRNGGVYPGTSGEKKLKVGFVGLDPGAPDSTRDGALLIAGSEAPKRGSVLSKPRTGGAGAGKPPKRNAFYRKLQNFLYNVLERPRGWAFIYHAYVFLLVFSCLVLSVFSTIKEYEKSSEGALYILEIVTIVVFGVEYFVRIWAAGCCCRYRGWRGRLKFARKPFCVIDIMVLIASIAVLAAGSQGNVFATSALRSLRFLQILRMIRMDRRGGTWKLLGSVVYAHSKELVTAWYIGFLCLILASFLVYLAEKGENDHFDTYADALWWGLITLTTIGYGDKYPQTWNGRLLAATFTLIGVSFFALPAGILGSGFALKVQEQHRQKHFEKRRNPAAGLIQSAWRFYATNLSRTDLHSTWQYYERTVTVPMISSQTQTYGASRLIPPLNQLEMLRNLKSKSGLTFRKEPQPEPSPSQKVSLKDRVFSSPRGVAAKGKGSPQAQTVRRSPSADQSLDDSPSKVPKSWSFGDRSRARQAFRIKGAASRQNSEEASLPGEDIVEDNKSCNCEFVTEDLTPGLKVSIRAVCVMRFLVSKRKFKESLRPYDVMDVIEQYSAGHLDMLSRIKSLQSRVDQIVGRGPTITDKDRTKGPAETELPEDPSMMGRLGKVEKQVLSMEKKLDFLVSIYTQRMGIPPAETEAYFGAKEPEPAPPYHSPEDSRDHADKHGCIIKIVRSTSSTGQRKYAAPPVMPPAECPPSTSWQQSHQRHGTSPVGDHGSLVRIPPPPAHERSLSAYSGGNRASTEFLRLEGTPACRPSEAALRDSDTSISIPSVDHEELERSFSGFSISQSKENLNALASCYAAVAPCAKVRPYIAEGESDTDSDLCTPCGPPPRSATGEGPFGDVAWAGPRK
KCNQ2 pot baseline: recorded beside KCNQ2 pot, whose call it bears; B-score; compound at 10 µM; measured here: initial fluorescence intensity artifact check;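 brightness before thallium and not channel activity; 0 = typical well and far values either way flag optical interference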
Starred values were filed as active, the others as inactive.

SMILES	KCNQ2 pot	KCNQ2 pot baseline
O=C(O)[C@@H]1CCCN1C(=O)c1ccccc1N1C(=O)[C@@H]2Cc3c([nH]c4ccccc34)C(c3cccc(Cl)c3)N2C1=O (stereo not given in full)	1	-1.6
CC1(C(=O)NCCN2CCOCC2)C=CCN1C(=O)c1ccccc1 (stereo not given)	1.4	0.38
Cc1ccc(/C=N/NC(=O)Cn2nnc(N)n2)cc1	0.53	0.1
CCC(=O)Nc1ccc(C2=Nn3c(nnc3C(C)C)SC2)cc1	3	0.76
CC(C)(C)NCCOCCOc1ccccc1-c1ccccc1	1.7	-0.32
O=c1oc2cc(Cl)ccc2n1CSc1nc2ccccc2s1	0.89	0.53
Cc1nn(-c2ccc(C(=O)O)cc2)c(=O)c2ccccc12	2.1	-2.1
COc1ccccc1N1CCN(C(=O)C(=O)c2c[nH]c3ccccc23)CC1	0.27	1.7
COC(=O)CCCC1=CC2=CC(=O)C(C)(OC(=O)c3cccs3)C(=O)C2=CN1Cc1ccco1 (stereo not given)	0.51	-2.6
COc1cccc(NC(=O)c2ccc3c(c2)N(CC(=O)N2CCOCC2)C(=O)C(C)(C)O3)c1	1.4	2.1
NC(=O)N/N=C/c1cccc(OCc2ccc(F)cc2)c1	0.11	-1.8
O=S(=O)(c1cc(Cl)ccc1Cl)N1CCCC1	0.02	0.08
COc1cccc(CNS(=O)(=O)c2ccc3c(c2)oc(=O)n3C)c1	2.7	-1.9
c1ccc(-c2cn(C[C@H]3CC[C@@H]([C@@H]4CC[C@H](Cn5cc(-c6ccccn6)nn5)O4)O3)nn2)nc1	1.4	-1.6
Cc1ccc(C(=O)Nc2nc(=O)n(C(=O)C3CC3)s2)cc1	3.3	0.95
CCC(C)N(C(=O)c1csnn1)C(C(=O)NCc1ccc(F)cc1)c1ccccc1F (stereo not given)	0.05	-2.3
CNC(=O)c1c(NC(=O)C2=COCCO2)sc(C)c1C	0.11	0.76
Cc1cccc(Nc2nnc(SCC(=O)Nc3ccc(C(=O)O)cc3)s2)c1	0.77	0.86
CSc1nc(Sc2ccccc2Cl)c2ccccc2n1	0.38	0.3
C=Cn1cc[n+](CC(=O)c2ccc(OC)c(OC)c2)c1	1.3	-2.8
Cc1ccc(N2CC(NC(=O)C(=O)c3c(C)[nH]c4ccccc34)CC2=O)cc1C (stereo not given)	2.1	0.04
CC(C)Cn1c(=O)c2sccc2n2c(CCCC(=O)NC3CCN(Cc4ccccc4)CC3)nnc12	0.58	-0.16
O=C(Nc1ccccc1Cl)Nc1cccnc1Cl	1.1	-0.01
CCN(CC(=O)NC(C)C)C(=O)C(CCSC)NC(=O)c1ccccc1OC (stereo not given)	0.78	1.1
CC(=O)N(C)c1ccc(NC(=S)NC(=O)/C=C/c2ccco2)cc1	0.06	0.35
Cc1c(C(=S)Nc2ccccc2)cnn1-c1ccc([N+](=O)[O-])cc1	1.3	-0.36
NC(=O)c1cc(S(=O)(=O)Nc2ccc(OC(F)(F)F)cc2)cs1	1.8	1.8
CCC(C(=O)Nc1nc(C)cs1)c1ccccc1 (stereo not given)	0.62	-0.33
CCOCCCNC(=O)/C(C#N)=C/c1ccc(-c2ccc(S(=O)(=O)N3CCOCC3)cc2)o1	0.41	-1.7
O=C(Nc1cccc([N+](=O)[O-])c1)C1C2CC/C=C\CCC21 (stereo not given)	0.24	3.6
CCOc1ccc(/C=C/C(=O)N(CC)CC(=O)Nc2ccc3c(c2)OCCO3)cc1OCC	0.83	-0.29
Cc1ccc(-c2nc3ncccc3o2)cc1NC(=O)C(C)(C)C	0.04	-0.99
O=C(Nc1ccccc1)Nc1ccc2ccccc2c1	0.05	0.47
O=C(N[C@@H](Cc1ccccc1)C(=O)O)c1cccnc1	1.9	0.9
Cc1[nH]c(=O)[nH]c(=O)c1S(=O)(=O)N1CCCCC1	1.7	1.1
O=S(=O)(N[C@@H]1C[C@H]2CC[C@@H]1C2)c1cccs1	0.87	0.03
CC1(C)Oc2ccc3ccc(=O)oc3c2/C(=C/NCCO)C1=O	0.87	-0.02
Cc1cc([N+](=O)[O-])nn1CC(=O)N1c2ccccc2CC1C (stereo not given)	1.6	-0.19
O=C(O)CC(NC(=O)C12CC3CC(CC(C3)C1)C2)c1cc([N+](=O)[O-])ccc1Cl (stereo not given)	1.2	-0.88
CN(C)c1ccc(S(=O)(=O)NCC(=O)N2CCN(c3ccccc3)CC2)cc1[N+](=O)[O-]	1.8	2.2
CCCCOc1ccccc1C1NC(=O)NC(C)=C1C(=O)OCCOCC (stereo not given)	1.1	-0.01
O=C(CCc1ccccc1)NNC(=O)COc1ccc(Br)cc1	0.32	1.5
COCC(=O)N1CCC(Oc2ccc(C(=O)N3C[C@@H]4CCC[C@H]3C4)cc2)CC1	1.6	-0.68
Cc1ccc(-c2csc(NC(=O)C3CC(=O)N(Cc4ccco4)C3)n2)cc1 (stereo not given)	0.45	-0.04
O=C(Nc1ccc2nc(C3CC3)n(Cc3ccc(F)cc3)c(=O)c2c1)c1ccco1	0.38	-1.4
CCC(=O)OCC(=O)Nc1ccc([N+](=O)[O-])cc1OC	0.06	0.94
CCCN(C(=O)COC(=O)CC1CCCCC1)c1c(N)n(Cc2ccccc2)c(=O)[nH]c1=O	0.15	-0.08
C=CCNC(=O)c1cc(Cl)ccc1[N+](=O)[O-]	1.9	-1.5
O=C(Nc1cccc(-c2nc3ccccc3o2)c1)c1cccnc1	1.4	-2.1
CCn1c(C)nc2cc(C(=O)NNC(=O)CCC3CCCCC3)ccc21	0.76	0.77
CCOc1cc(N2CCOCC2)c(OCC)cc1NC(=O)Cn1cnc2c(=O)n(C)c(=O)n(C)c21	0.01	2.3
COc1ccc(Cc2noc(CN3CCCC(C(=O)c4cccs4)C3)n2)cc1OC (stereo not given)	1.3	-3.1
Nc1ccccc1SCC(O)Cn1ccc2ccccc21 (stereo not given)	1	0.21
COc1ccc(-c2c(C(C)=O)c(C)n(C)c2C)cc1	0.65	-2.3
COc1ccc(CNC(=O)CCS(=O)(=O)Cc2ccc(C)cc2)c(OC)c1	2.4	-0.84
CCOc1nc2ccccc2cc1/C=C/C(=O)O	0.94	-0.58
O=C(CN1CCCCCC1)Nc1c(Cl)cc(Cl)cc1Cl	2.3	1.4
C=C(C)c1cccc(C(C)(C)NC(=O)Nc2ccccc2OCC)c1	8.7*	1.7*
COc1ccc(C(=O)Cn2c(NCCCO)nc3ccccc32)cc1OC	1.5	-0.87
CCOC(=O)c1c(O)c2ccccc2n(CC)c1=O	0.78	-1.7
More records follow.
SMILES	KCNQ2 pot	KCNQ2 pot baseline
CC1(c2ccc(OC(F)F)cc2)NC(=O)N(CC(=O)Nc2cccc(F)c2)C1=O (stereo not given)	0.61	-1.4
COc1cc(OC)cc(-c2nnc(SCc3cccnc3)o2)c1	0.05	-0.05
COc1ccc(NC(=O)C(=O)NNC(=O)COc2ccc(Cl)cc2)c(OC)c1	10*	2.2*
CN(Cc1nccn1C)C(=O)c1cc(COc2ccc3ncccc3c2)on1	0.9	0.01
COc1ccc(OC)c2sc(NC(=O)c3ccc(S(=O)(=O)N4CCOCC4)cc3)nc12	1.2	0.22
CCOP(=O)(OCC)C(Nc1ccccn1)c1ccc(F)cc1 (stereo not given)	0.63	-0.31
CC(CC(=O)N1CCc2ccccc21)S(=O)(=O)c1ccc2c(c1)NC(=O)CO2 (stereo not given)	2	-1.4
CC1CCN(C(=O)c2ccc(NS(=O)(=O)c3ccc4[nH]c(=O)[nH]c4c3)cc2)CC1	0.73	0.01
COc1cccc(NC(=O)CSc2nnc(-c3cc(C)[nH]n3)n2N)c1	0.23	0.95
CCOC(=O)N1CCN(C(=O)c2ccc3c(=O)n(CCc4ccccc4)c(=O)[nH]c3c2)CC1	0.44	1.1
Clc1cc(Cl)c2nc(N3CCCCC3)sc2c1	2.4	-1.3
CN(C)c1cccc(C(=O)Nc2cccc(S(=O)(=O)NC3=NCCC3)c2)c1	0.83	-1.6
N#CCC(=O)Nc1ccccc1C(=O)O	1.8	0.52
CC(=O)Nc1n[nH]c(-c2ccc(C)cc2)c1C	1.2	0.75
CCO[C@@H]1OC(C(=O)Nc2ccccc2)=C[C@H](c2coc3ccccc3c2=O)[C@H]1CCCO	2.1	-0.58
Cc1ccc(C(=O)c2nccn2C)cc1C	0.02	0.43
Cc1ccc(-c2csc(NC(=O)CN3CC(C)OC(C)C3)n2)cc1 (stereo not given)	0.02	-0.08
Cc1ccccc1NC(=O)CCn1c(=O)oc2ccccc21	0.09	0.94
O=C(Nc1ccccc1C(=O)Nc1nnc(C(F)(F)F)s1)c1ccccc1	3.5	1.8
COc1ccc(NC(=O)C(=O)NNC(=O)C(C)Oc2ccc(Cl)cc2Cl)cc1 (stereo not given)	20*	-1.4*
O=S1(=O)[C@H]2C[C@@H]3C=C[C@@]2(CN1Cc1cccc(F)c1)O3	0.64	-0.21
CCn1c(C(O)c2cccc(OC)c2OC)nc2ccccc21 (stereo not given)	0.74	0.46
Cc1cc(O)cc(O)c1C=NCc1ccco1	2.4	-3.5
O=C(CCc1ccc(S(=O)(=O)NC2CCCCC2)cc1)NCc1ccccc1	0.08	0.18
CCOc1ccc(C(C)=O)cc1Cc1c(O)nc(N)[nH]c1=O	0.63	0.86
Cc1cc(N2CCCCC2)nc2c(C)cccc12	0.75	0.93
O=C1CN(S(=O)(=O)c2ccccc2)CCN1S(=O)(=O)c1ccccc1	0.86	-0.9
CN(C)c1ccc(-n2cccc2/C=C2/SC(=Nc3ccc(F)cc3)NC2=O)cc1	1.8	-1.7
CC(C)(C)c1ccc(C(=O)NCc2ccccc2)cc1	0.05	-0.49
O=C(NC(=S)Nc1ccccc1Br)c1cccnc1	0.43	1.3
O=C(N/N=C/c1ccc(OC(=O)c2cccs2)cc1)c1cccc(F)c1	0.37	-0.72
CN(C)S(=O)(=O)c1cccc(NC(=O)COC(=O)c2cc(=O)c3ccccc3o2)c1	0.49	-0.02
Cc1ccc(S(=O)(=O)Oc2cc(N)c3c(n2)CCC3)cc1	2.2	0.31
Cc1onc(-c2c(Cl)cccc2Cl)c1C(=O)Nc1ccc(N2CCOCC2)cc1	1.4	-0.91
O=c1c2ccccc2oc2cc(NCCCN3CCOCC3)ccc12	1.3	-0.2
CCC/C(O)=C1\C(=O)CC(c2ccccc2)CC1=NCCc1c(C)[nH]c2ccc(C)cc12 (stereo not given)	5.2	-0.71
CCOc1ccc(C(=O)OCC(=O)N2CCCC2)cc1OCC	0.52	-1.2
O=C(Nc1ccc2c(c1)ncn2C1CCCCC1)c1ccco1	0.19	-0.34
CCOc1cc(/C=N/NC(=S)Nc2ccccc2C(F)(F)F)ccc1OCC(=O)N1CCOCC1	0.64	0.05
Cc1cc(NC(=O)c2cc3n(n2)C(C(F)(F)F)CC(c2ccco2)N3)n(-c2ccccc2)n1 (stereo not given)	0.04	0.09
COc1ccccc1NC(=O)/C(C#N)=C/c1c(C)nn(-c2ccc(F)cc2)c1Cl	0.56	-2
NC(=O)c1ccc[n+](Cc2ccc(-c3ccccc3)cc2)c1	0.13	0.67
CN(C(=O)CCN1C(=O)S/C(=C\c2ccccc2)C1=O)C1CCS(=O)(=O)C1 (stereo not given)	1.2	1.2
COC(=O)c1cc(S(=O)(=O)Nc2cccc(OC)c2)cn1C	1.9	-0.39
COc1ccc(NC(=O)C2CC(=O)N(c3ccccc3Cl)C2)c(OC)c1 (stereo not given)	0.65	-0.03
Cc1ccc(N2CC(C(=O)Nc3cccnc3)CC2=O)cc1 (stereo not given)	1.3	0.16
O=C(O)c1cccc(S(=O)(=O)Nc2ccc(O)cc2Sc2nc3ccccc3s2)c1	0.77	0.06
CCCCCn1c(CCNC(=O)CCC)nc2ccccc21	2.6	-0.29
CN1C(=O)CC(C(=O)O)SC1=Nc1cccc(C(F)(F)F)c1 (stereo not given)	1.3	-0.12
COc1ccc(S(=O)(=O)N2CCCC2)cc1Br	0.82	-1.5
Cn1cc([N+](=O)[O-])c(C(=O)Nc2cnn(Cc3ccc(F)cc3)c2)n1	0.09	0.03
CC(C)(C)c1ccc(C(=O)NCC(=O)N2CCC3(CC2)NCCc2[nH]cnc23)cc1	1.9	0.18
CCCCCCCC(=O)NNC(=O)c1ccc([N+](=O)[O-])cc1	0.01	0.18
COc1ccc(CCc2cc(OC)cc(=O)o2)cc1	0.15	0.57
CCOP(=O)(OCC)C(NC(=O)C(F)(F)F)c1ccccc1 (stereo not given)	1.2	-1.2

Screening results as filed in PubChem BioAssay.

These rows are one share of the data, so the mix of outcomes need not match the whole.
